H5N1 antiviral – antiviral screen in MDCK cells, H5N1 avian flu; cytopathic effect, luminescence, 72 h; active compounds read high; no value below 0 was filed and about half of the inactive calls have no number; reference of the scale not given here; 0.07% of 96,000 active; inhibition, % at 50 µM; in the data active means inhibition above about 25%
An asterisk follows results filed as active; i = inactive. Only part of the results is shown (hit frequency here may not be typical).

SMILES | H5N1 antiviral
O=C1CC(N2CCC(n3c(=O)[nH]c4ccccc43)CC2)C(=O)N1c1ccc(F)cc1 (configuration not stated) | 0.1
Cc1cc(C)c(C)c(OCC(=O)NCc2nc(-c3ccccc3)no2)c1 | 1.4
CCn1c(Cc2ccccc2)nnc1SCC(=O)Nc1ccc(N)cc1 | i
CC(=O)N/C(=C/c1ccccc1)C(=O)NCCO | 0.3
O=C(CCSCCC(=O)NCc1ccco1)NCc1ccco1 | 2.2
C=CCn1c(O)c(C(=O)CCCCCC)c(=O)[nH]c1=O | 0.2
COc1ccccc1NC(=O)N1CCN(c2ccccc2F)CC1 | i
COc1ccc(N2CC(O)=C(c3nc4ccccc4s3)C2=N)cc1 | i
CC(C)C(=O)NC(c1ccco1)c1c(O)ccc2ccccc12 (configuration not stated) | i
CCc1nnc(NC(=O)C2CCN(c3nc(C)cc(C)n3)CC2)s1 | i
O=C(NC1CC1)c1c[nH]c2ccc(S(=O)(=O)Nc3cccc(C(F)(F)F)c3)cc2c1=O | 0.8
CNC(=O)COc1ncnc2sccc12 | 0.7
O=C(NCCC1=CCCCC1)C1CCN(S(=O)(=O)c2cnc[nH]2)CC1 | i
Cc1ccccc1SCC(=O)NC1CCOC1=O (configuration not stated) | i
CCCC(C)C(=O)Nc1ccc(C(N)=O)cc1 (configuration not stated) | i
O=C1CC(=O)C(n2cncn2)C(c2ccc(Cl)cc2Cl)C1 (configuration not stated) | i
C=CCNC(=S)Nc1sc2c(c1C(=O)OCC)CCN(C(=O)OCC)C2 | i
C[C@H](NC(=O)OC(C)(C)C)c1nnc(SCC(=O)Nc2ccc(Br)cc2)o1 | i
COc1ccc2c(c1)NC1(O)c3ccccc3C(=O)C21O (configuration not stated) | 1.5
COc1ccc(Br)cc1-c1noc(-c2ccncc2)n1 | 1.4
CCOC(=O)c1c(NC(=O)CSc2nc3c(c(=O)n(C)c(=O)n3C)n2C(C)C)sc(C)c1C | 3.0
COc1ccc(CCNC(=O)CSc2nnc(CNC(=O)c3ccccc3F)o2)cc1OC | i
O=C(Cc1c(O)c2ccccc2[nH]c1=O)N(Cc1ccccc1)Cc1ccccc1 | 0.2
CCCn1c(N2CCN(CC(=O)c3c[nH]c4ccccc34)CC2)nc2c1c(=O)[nH]c(=O)n2C | 1.6
CCOC(=O)C1=C(C)C(c2ccccc2)NC(=S)N1 (configuration not stated) | i

A different layout for some results above:
| molecule | H5N1 antiviral |
| --- | --- |
| COc1ccc(CCNC(=O)CSc2nnc(CNC(=O)c3ccccc3F)o2)cc1OC | i |
| CCCC(C)C(=O)Nc1ccc(C(N)=O)cc1 (configuration not stated) | i |

Additional entries:
SMILES | H5N1 antiviral
CC(C)N(Cc1cc2ccccc2[nH]c1=O)C(=O)C(C)(C)C | 0.7
COc1ccc(CCc2nc(-c3ccc(-n4cccc4)cc3)no2)cc1 | i
CC(C)NC(=O)CSc1nc2ccccc2c(=O)n1CCCOC(C)C | i
CCN(CC(=O)Nc1ccc2c(c1)OCCO2)C(=O)CC1CCCC1 | 0.2
C=CCc1cccc2cc(C(=O)NC(C)(C)C)c(=O)oc12 | 0.9
Cc1ccc(C(=O)CC2(O)C(=O)N(CN3CCOCC3)c3ccccc32)cc1 (configuration not stated) | i
CCOc1ccc(C2N(c3ccc(Cl)cc3)C(=O)C3CCCN32)cc1OC (configuration not stated) | i
CCCSc1nc2c(c(=O)[nH]c(=O)n2C)n1Cc1ccc(C)cc1 | 1.8
CCOC(=O)c1csc(NC(=O)c2ccc(S(=O)(=O)N(C)C)cc2)n1 | i
CCOc1cccc(-c2nn3c(-c4ccco4)nnc3s2)c1 | 9.8
Cc1cccc(NC(c2ccc(O)cc2)c2ccc3ccc(C)nc3c2O)n1 (configuration not stated) | i
O=C1CC(N2CCN(Cc3ccc4c(c3)OCO4)CC2)C(=O)N1c1ccccc1 (configuration not stated) | i
COC(=O)c1cc(-c2c(C)nn(-c3ccccc3)c2C)n[nH]1 | 0.1
CC(=O)Nc1ccc(Nc2nc(C)nc3c2oc2ccccc23)cc1 | 0.2
COc1ccc(CN2CC(C(=O)NCCC3=CCCCC3)CC2=O)cc1 (configuration not stated) | i
Cc1ccc(NC(=O)c2ccco2)c(NC(=O)c2cccs2)c1 | i
COc1ccc(NC(=O)CCNS(=O)(=O)c2ccc3c(c2)CCC(=O)N3)cc1 | 0.2
CCN(CC)C(=O)N1c2ccccc2C=Cc2ccccc21 | i
Cc1c(-c2ccc(F)cc2)nc(N)c(C#N)c1-c1cccs1 | i
Cc1csc(SCC(=O)Nc2nc3ccccc3s2)n1 | i
COCCNC(=O)c1c(N)n(CCC2=CCCCC2)c2nc3ccccc3nc12 | i
CC(=O)c1ccc(OCCCC(=O)N2CCN(S(=O)(=O)c3cccs3)CC2)cc1 | 3.0
COc1ccc(C(=O)NCCSCc2ccco2)cc1OC | i
CC(=O)c1cc(F)c(N2CCN(c3ccc([N+](=O)[O-])cc3F)CC2)cc1C | i
O=C1CC(C(=O)N2CCN(c3ccc(F)cc3)CC2)CN1CCc1ccccc1 (configuration not stated) | 0.8

More structures
SMILES | H5N1 antiviral
Cc1cccc(NC(=S)NCc2cccs2)c1C | 0.4
C(=N\Nc1nc2ccccc2s1)/c1ccco1 | i
CS(=O)(=O)N(CC(=O)N1CCOCC1)Cc1ccccc1 | 0.1
CN(C)C(=O)c1nc(C#N)c(N(C)C)o1 | i
COc1ccccc1N1CCN(c2cc(=O)n(-c3ccc(Br)cc3)c(=O)[nH]2)CC1 | i
CC(C)(C)N1C(=O)Cc2c1nc(N)c1c(N)nc(N3CCCCC3CO)c(C#N)c21 (configuration not stated) | i
Fc1ccc(CNC(=S)Nc2ccc(Cl)cc2)cc1 | i
O=C(NC1CCCCC1)N1CCC(n2cnc3ccccc32)CC1 | i
C/C(=C\C(=O)c1ccc(Br)cc1)N1CCCCC1 | 0.0
O=P(O)(CCc1ccccc1)CN1CCCCC1 | 0.1
CC(C)(C)NC(=O)C(c1ccncc1)N(C(=O)c1csnn1)c1ccccc1 (configuration not stated) | 0.3
CCOC(=O)Cc1csc(NC(=O)c2csc(C)c2)n1 | i
CN(CC(=O)N1CCN(c2ccccc2)CC1)S(=O)(=O)c1cnc[nH]1 | i
Cc1cccc2cc(CN(Cc3cccs3)C3(c4nnnn4C4CCCC4)CCCC3)c(=O)[nH]c12 | i
COc1cccc(CN(C(=O)Cc2c[nH]c3ccccc23)C(C(=O)NC2CCCCC2)c2cccs2)c1 (configuration not stated) | 1.3
Cc1ccc(/C=N/NC(=O)c2c[nH]c3ccccc23)o1 | 0.6
O=C1[C@@H]2[C@H](Cc3ccc(O)cc3)N[C@]3(C(=O)Nc4ccccc43)[C@@H]2C(=O)N1c1ccc(F)cc1 | i
Cc1cc(=O)n(C)c(=O)n1CCCCCOc1cccc([N+](=O)[O-])c1 | 2.1
CCc1ccc(C2CC(c3cccc(Cl)c3)n3nc(N)nc3N2)cc1 (configuration not stated) | i
O=C(NCCN1CCN(C(=O)C(c2ccccc2)c2ccccc2)CC1)C(=O)Nc1ccccc1 | i
CC(=O)c1c(C)[nH]c(C(=O)OCCCCN2C(=O)c3ccccc3C2=O)c1C | 0.8
CN(C)CCCn1c(N)c(C#N)c2nc(C#N)c(C#N)nc21 | i
COc1cccc(-n2ccnc2SCC(=O)Nc2ccccc2)c1 | 2.3
Brc1c(CSc2nnc(-c3ccco3)o2)nc2ccccn12 | 2.2
C/C(=C\C(=O)c1ccc(F)cc1)Nc1ccc(N2CCOCC2)cc1 | 0.9

More structures follow:
SMILES | H5N1 antiviral
COc1ccc(OC)c(/C(O)=C/C(=O)C(=O)Nc2cc(C)cc(C)c2)c1 | i
O=C(NCC1CCCO1)C1CCCN1C(=O)NC1CCCCC1 (configuration not stated) | i
Cc1cc(C)c2nc(SCCc3ccccc3)nc(C)c2c1 | 1.1
Cn1c(Cn2c(=O)sc3ccccc32)nnc1SCC(=O)NCc1ccccc1 | 1.1
Cc1cc(NC(=O)c2cccc(S(=O)(=O)N3CC(c4ccccc4)CC3=O)c2)no1 (configuration not stated) | i
COc1ccc2c(C)c(Cl)c(=O)oc2c1 | 0.8
O=C(OCc1c(F)cccc1Cl)c1cnccn1 | i
COc1ccc(N(C)S(=O)(=O)c2c(C)[nH]c(=O)[nH]c2=O)cc1 | i
O=C(c1ccc(CS(=O)(=O)c2c(Cl)cccc2Cl)o1)N1CCN(c2ccccn2)CC1 | 0.8
COc1ccc(Nc2ncnc3c2oc2ccccc23)cc1 | i
Cc1ccc(NC(=S)N/N=C/c2ccc(OCCC(C)C)cc2)c(C)c1 | i
O=C(c1cc2c(s1)-c1ccccc1OC2)N1CCCC1 | i
COc1ccc(OC)c(C2Nc3nc4ccccc4n3C(C)=C2C(=O)Nc2ccc(C)cc2C)c1 (configuration not stated) | i
CCCC(=O)Nc1ccc(Cl)c(NC(=O)c2cccnc2)c1 | i
Cc1ccc(C)n1CCN1CCN(CC(=O)Nc2ccc(S(N)(=O)=O)cc2)CC1 | 0.8
Cc1cc2ccc(C)c(C)c2nc1SCC(=O)c1cccs1 | i
CSc1nnc2c3ccccc3n(Cc3ccccc3)c2n1 | i
CCc1cc2c(=O)c(-c3nc4ccccc4n3C)c(COCC(=O)O)oc2cc1O | i
Cc1[nH]nc(-c2ccc(O)cc2O)c1-c1ccc(Cl)cc1 | 0.8
CN(C)Cc1cnc2ccc(Cl)cn12 | 0.1
COc1cc(C)ccc1OCCOCCOc1c(C)cc(C)cc1Br | i
COc1cc(OC)cc(-c2nc(-c3ccccc3)no2)c1 | i
Cc1cc(C)c(-c2cc(NC(=O)CSc3nncn3C)n(-c3ccccc3)n2)cc1C | 2.1
Cc1onc(-c2c(Cl)cccc2Cl)c1C(=O)NC(C)(C)CO | i
CN(C)CCCNCCCNC(=O)/C(=N\O)c1ccccn1 | i

Given comma-delimited: 24 of the compounds above.
compound,H5N1 antiviral
Brc1c(CSc2nnc(-c3ccco3)o2)nc2ccccn12,2.2
C/C(=C\C(=O)c1ccc(F)cc1)Nc1ccc(N2CCOCC2)cc1,0.9
COc1ccc(OC)c(/C(O)=C/C(=O)C(=O)Nc2cc(C)cc(C)c2)c1,i
O=C(NCC1CCCO1)C1CCCN1C(=O)NC1CCCCC1 (configuration not stated),i
Cc1cc(C)c2nc(SCCc3ccccc3)nc(C)c2c1,1.1
Cn1c(Cn2c(=O)sc3ccccc32)nnc1SCC(=O)NCc1ccccc1,1.1
Cc1cc(NC(=O)c2cccc(S(=O)(=O)N3CC(c4ccccc4)CC3=O)c2)no1 (configuration not stated),i
COc1ccc2c(C)c(Cl)c(=O)oc2c1,0.8
O=C(OCc1c(F)cccc1Cl)c1cnccn1,i
COc1ccc(N(C)S(=O)(=O)c2c(C)[nH]c(=O)[nH]c2=O)cc1,i
O=C(c1ccc(CS(=O)(=O)c2c(Cl)cccc2Cl)o1)N1CCN(c2ccccn2)CC1,0.8
COc1ccc(Nc2ncnc3c2oc2ccccc23)cc1,i
Cc1ccc(NC(=S)N/N=C/c2ccc(OCCC(C)C)cc2)c(C)c1,i
O=C(c1cc2c(s1)-c1ccccc1OC2)N1CCCC1,i
COc1ccc(OC)c(C2Nc3nc4ccccc4n3C(C)=C2C(=O)Nc2ccc(C)cc2C)c1 (configuration not stated),i
CCCC(=O)Nc1ccc(Cl)c(NC(=O)c2cccnc2)c1,i
Cc1ccc(C)n1CCN1CCN(CC(=O)Nc2ccc(S(N)(=O)=O)cc2)CC1,0.8
Cc1cc2ccc(C)c(C)c2nc1SCC(=O)c1cccs1,i
CSc1nnc2c3ccccc3n(Cc3ccccc3)c2n1,i
CCc1cc2c(=O)c(-c3nc4ccccc4n3C)c(COCC(=O)O)oc2cc1O,i
Cc1[nH]nc(-c2ccc(O)cc2O)c1-c1ccc(Cl)cc1,0.8
CN(C)Cc1cnc2ccc(Cl)cn12,0.1
COc1cc(C)ccc1OCCOCCOc1c(C)cc(C)cc1Br,i
COc1cc(OC)cc(-c2nc(-c3ccccc3)no2)c1,i

The listing continues:
SMILES | H5N1 antiviral
COc1ccc(OCCN2C(=O)NC(C)(c3ccc(C)cc3)C2=O)cc1 (configuration not stated) | i
Cc1ccc(O)c(C2=NCCNC(C(F)(F)F)=C2)c1 | 0.4
C=CCn1c(COc2cccc3ccc(C)nc23)nnc1SCC(=O)OC | i
CC(NC(=O)C(NC(=O)C1CCCN1C(=O)OC(C)(C)C)C(C)C)C(N)=O (configuration not stated) | i
COC(=O)c1sccc1NC(=O)c1cc(OC)c(OC)c(OC)c1 | 5.0
CC(=O)c1ccc(N2CCC(c3cc(-c4ccc(Cl)cc4)n[nH]3)CC2)c([N+](=O)[O-])c1 | 2.4
O=C(O)CSc1nnnn1-c1ccccc1 | i
O=C(Oc1ccc(Br)cc1C(=S)N1CCCCC1)c1cc([N+](=O)[O-])cc([N+](=O)[O-])c1 | 0.4
CCNC(=S)N1CCC(NC(=O)C2CCCCC2)CC1 | i
COc1ccc(S(=O)(=O)N2CCCN(Cc3cccc(F)c3)CC2)cc1 | 2.9
CC(NC(=O)OC1CCCCC1)N1C(=O)C2C3C=CC(C3)C2C1=O (configuration not stated) | i
CCOC(=O)C1CCCN(C(=O)COC(=O)C2=COCCO2)C1 (configuration not stated) | i
O=C(Cc1ccc(Cl)cc1)Nc1nc2ccccc2[nH]1 | 0.6
O=S(=O)(c1ccc(F)cc1)n1ccc(-c2cnc(-c3ccccc3)s2)n1 | i
COCCNC(=O)c1sc2ncn(CC(=O)N3CCCCC3)c(=O)c2c1C | 0.6
Cc1noc(C(=O)Nc2ccccc2C(F)(F)F)c1Cl | 0.2
COC(=O)C1=NN(C(=O)c2ccccc2)C(C)(O)C1 (configuration not stated) | i
N=c1c2c(-c3ccccc3)c(-c3ccccc3)n(Cc3ccccc3)c2ncn1CCCO | i
CC1/C(=N/O)C(CN(C)C)C2CC1C2(C)C (configuration not stated) | 1.0
CC(N=Cc1nc(-c2ccccc2)oc1O)c1ccccc1 (configuration not stated) | i
C=CCn1c(C2CC(=O)N(c3ccc(C)cc3)C2)nc2ccccc21 (configuration not stated) | i
O=C(NCCCN1CCCCC1)C1CCC(=O)N1CCc1ccccc1 (configuration not stated) | 0.8
Cc1ccc(NC(=O)C(=O)NCc2ccc(/C=C(/C#N)C(=O)NCc3cccnc3)o2)cc1 | i
CC(Oc1ccccc1Cl)C(=O)/C=C/N(C)C (configuration not stated) | i
CCCCNC(=O)c1nc2ncc(Br)cn2n1 | 2.4
Cn1c(=O)c2c(nc(NCc3ccc4c(c3)OCO4)n2C)n(C)c1=O | 0.8
C=CCc1ccccc1OCCn1ccnc1 | 0.4
COC(=O)c1ccccc1NC(=O)C1CC(=O)N(c2ccccc2)C1 (configuration not stated) | 0.5

Screening data from PubChem.
